HSD17B inhib: HSD17B dehydrogenase inhibition. Q99714. Potency, µM (doses to about 57.1 µM), for the others: top-dose activity change, negative = inhibition, actives largely listed as inhibitors. actives 7.6% (n = 75,000). recombinant HSD17B10, NADH fluorescence kinetic; many of its hits are not listed in these tables; active means well fitted inhibition curve with a large enough effect; inconclusive means small, poorly fitted or top-dose-only effect; inactive means no such curve, though single readings can be large or run the other way;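 further: the protocol describes HADH2 (HSD17B10) and not the HSD17B4 of the title; nearly all actives have a fitted effect of over 70% in size; most hits overshoot -100% by far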
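Activity followed as NADH fluorescence increase (ex 360, em 450 nm) every 30 seconds for 4 min, using final 90 uM beta-hydroxybutyryl CoA and 1 mM NAD+. Recombinant His-tagged enzyme, 20 nM, pH 9.0 Tris buffer, 15 min compound preincubation.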
* = called active by the depositor; u = inconclusive; [ ] = dose if it differs, or a comment. On the % scale 0 is the no-effect control and ±100 the full control effect; potency means the concentration at half of the fitted maximal effect. An excerpt (hit frequency here may not be typical).

SMILES,HSD17B inhib
CC1=C(C(=O)OCC(C)C)C(c2cc3c(cc2Br)OCO3)NC(=O)N1C (centres undefined),-4%
COc1ccc(CNc2ncncc2-c2cccc(C#N)c2)c(OC)c1,9%
CCS(=O)(=O)n1nc(-c2ccc(OC)cc2)nc1SC,102%[activator]
CCn1c(SCC(=O)N2CCCc3ccccc32)nnc1-c1c[nH]c2ccccc12,1%
O=C(O)CC1CCCC(c2ccccc2)C1=O (centres undefined),-16%
COc1ccc(NC(=O)CC(=O)Nc2ccc(OC)cc2OC)c(OC)c1,11%
CCCc1nc2c(o1)CC(CC(C)SCC)CC2=O (centres undefined),-2%
CC(C)NC(=O)C1CCN(C(=O)N(C)C)CC1,-7%
CCOc1c(C#N)c(C#N)c2nc(C)cc(C)n12,16%
COc1ccccc1NC(=O)CSc1nnc(CC(=O)Nc2ccccc2)n1C,-5%
CCOC(=O)Cn1c(-c2nonc2NC(=O)c2ccccc2F)nc2ccccc21,-1%
O=C(Cn1c(N2CCN(c3ccccc3)CC2)nc2ccccc21)c1ccccc1,0%
O=C(Nc1cc(NC(=O)c2ccccc2)c(C(=O)O)cc1C(=O)O)c1ccccc1,-29%
CCOC(=O)C(NC(=O)c1ccccc1OCC)(Nc1ncccn1)C(F)(F)F (centres undefined),5%
CCOC(=O)C1=C(C)NC2=C(C(=O)CC(C)(C)C2)C1c1ccc2c(c1)CCCN2C (centres undefined),13µM*
O=C(c1csc2c1CCCC2)n1cccn1,-2%
CCN(CC)c1ccc(N)cc1,2%
COC(=O)c1ccc(NC(=O)C2CCN(S(C)(=O)=O)CC2)cc1,-6%
Cc1cnc(-c2nnc(N(C)C(=O)c3ccccn3)s2)cn1,14%
CC1(C)Cc2noc(N)c2C(C)(C)N1OC(=O)c1ccco1,8%
O=C(C1CCN(c2nnc(-n3cccc3)s2)CC1)N1CCN(c2cccc(C(F)(F)F)c2)CC1,-5%
COc1ccc(OC)c(-c2cc(C(=O)NCc3cccs3)no2)c1,u
CC1(C)O[C@H]2O[C@@H]([C@H](O)CON3C(=O)c4ccccc4C3=O)[C@H](O)[C@H]2O1,3%[11.4 µM]
O=C1[C@H]2[C@@H](C(=O)N1c1cc(Cl)cc(Cl)c1)[C@]1(C(=O)Nc3ccccc31)N1CCC[C@@H]21,-9%
CCCCSc1cc(C)nc2ncnn12,-3%
C=C(C)Cn1c(CCCNC(=O)C(C)(C)C)nc2ccccc21,-7%
CCOC(=O)N1CCN(S(=O)(=O)N(C)C)CC1,5%
OC(COCc1ccccc1)CN1CCN(c2ccccc2)CC1 (centres undefined),1%
CC(C)c1ccc(NC(=O)C(c2ccccc2)N2CCOCC2)cc1 (centres undefined),6%
O=C(CSc1nnc(-c2ccncc2)o1)Nc1ccccc1Cl,3%
CNc1nc(-c2ccc(N(C)C)cc2)nc2ccccc12,20µM*
c1ccc2c(c1)ncc1cccn12,32µM*
COc1cccc(OC)c1C(=O)Nc1ccc(NC(=O)c2ccco2)cc1,8%
Cc1ccc(C2CC(c3cccc(C)c3)n3ncnc3N2)cc1 (centres undefined),-2%
CC(Sc1nnc2ccccn12)C(=O)Nc1ccc(Cl)cn1 (centres undefined),5%
CCN1CCN(CC(=O)Nc2ccc3c(c2)OCO3)C(=O)C1=O,5%
c1cc2c(cc1Oc1nc(N3CCOCC3)nc(N3CCOCC3)n1)OCO2,11%
Cc1onc(-c2ccccc2)c1C(=O)Nc1c(C)n(C)n(-c2ccccc2)c1=O,-1%
CC(=NC1CCCCC1)C1=C(O)c2ccccc2C1=O,10%
CN1C(=O)CC2(CC(=O)N(Cc3ccccc3)C2)C1=O (centres undefined),1%
Cc1ccc(NC(=O)N2CCC(NC(=O)c3ccccc3C)CC2)cc1,2%
CC(=O)OC1CC[C@]2(C)C(CC(OC(C)=O)[C@]3(C)C2CC[C@@]2(C)C(c4ccoc4)OC(=O)C4O[C@]432)C1(C)C (some centres undefined),-5%
Cc1nnc(N2CCN(Cc3ccccc3)CC2)[nH]c1=O,-14%
Cc1ccc(N2CCCn3c2nc2c3c(=O)n(CCN3CCOCC3)c(=O)n2C)cc1,13%
CCCOc1ccc(/C=c2\sc3nc(-c4ccco4)nn3c2=O)cc1OCC,-14%
CCn1c(SCC(N)=O)nnc1-c1cc2c(C)nn(-c3ccccc3)c2s1,u
CCCC(=O)n1nc(-c2ccc(OC)cc2)nc1N,165%[activator]
COC(=O)CNC(=O)c1c(-c2ccccc2Cl)noc1C,-2%
CCC(C)NC(=O)CCS(=O)(=O)c1ccc(Br)s1 (centres undefined),0%
CCN[C@@H]1C[C@H](C)S(=O)(=O)c2sc(S(N)(=O)=O)cc21,2%[25.6 µM]
CN1CCN(CC(=O)C23CC4CC(CC(C4)C2)C3)CC1,16%
Cc1nc2cc(S(=O)(=O)N(C)C)ccc2n1-c1ccccc1,-1%
C[C@H](CCC(=O)NN)[C@@H]1CC[C@@H]2[C@H]3CC[C@H]4C[C@@H](O)CC[C@@]4(C)[C@@H]3CC[C@]21C,6%[11.4 µM]
C[C@@H](Cc1ccccc1)Nc1ncnc2c1ncn2[C@@H]1O[C@@H](CO)[C@H](O)[C@@H]1O,-4%
CCN(CC)C(=O)CSc1nc2ncc(Cl)cc2[nH]1,5%
CCn1c(C)c(C(C)=O)c(N2CCN(c3ccccn3)CC2)nc1=S,10%
CCc1cc(/C(Cc2ccc3ccccc3n2)=N\O)c(O)cc1O,-9%
O=C(c1cn(CC(=O)N2CCCCC2)c2ccccc12)C1CC1,-11%
Cc1ccc(N(C(C)C(=O)N2CCCCC2)S(C)(=O)=O)cc1C (centres undefined),5%
Cc1cccc(Cl)c1NC[C@H](O)CN1CCN(C)CC1,4%[11.4 µM]

The results go on:
SMILES,HSD17B inhib
Clc1ccc(-c2nnc3sc(-c4ccccn4)nn23)cc1,11%
CC(C)C[C@H](NC(=O)N1CCCCCC1)C(=O)N[C@H](Cc1cn(C)c2ccccc12)C(=O)N[C@H](Cc1ccccn1)C(=O)O,-12%
Cc1sc2ncn3cnnc3c2c1C,6%
COC(=O)C1=C(N)Oc2cc(C)n(Cc3cccnc3)c(=O)c2C1c1ccc(OC)c(OC)c1 (centres undefined),-5%
O=C(COC(=O)c1cccc(C(=O)OCC(=O)NC2CCCCC2)n1)NC1CCCCC1,17%
COc1ccc(C2CC(c3ccc(Cl)c(Cl)c3)Nc3nc(N)nn32)cc1 (centres undefined),u
Clc1cc2c(c(CSC3=NCN(CC4CC4)CN3)c1)OCOC2,11%[11.4 µM]
CCc1nc(SCC(=O)Nc2cccc(C(F)(F)F)c2)c2c(=O)n(C)c(=O)n(C)c2n1,12%
c1ccc(C(c2ccccc2)N2CC3(CCNCC3)C2)cc1,-8%
Cn1c(SCC2CCCCC2)nnc1-c1ccncc1,4%
O=C(Oc1cccnc1)c1cc2ccccc2oc1=O,25µM*
O=C(CSc1nc(O)cc(=O)n1-c1ccccc1)NCc1ccccc1,-8%
O=C(CSc1ncnc2c1oc1ccccc12)N1CCc2ccccc2C1,13%
Cn1c(=O)c2c(ncn2CC(=O)Nc2nc(-c3ccccc3Cl)cs2)n(C)c1=O,-8%
COc1ccc(CSc2nnnn2Cc2ccccc2)cc1OC,-4%
CS(=O)(=O)N1CCN(c2ccccc2NC(=O)Cc2ccc(Cl)cc2)CC1,3%
O=C(CCCc1c[nH]c2ccccc12)N1CCCCCC1,-4%
Cn1c(-n2c(CCN3C(=O)c4ccccc4C3=O)nc3ccccc3c2=O)nc2ccccc21,11%
O=C(CCN1CCOCC1)Nc1ccc2c(c1)CCC2,11%
Cc1ccccc1NC(=O)c1cnc2ccccn2c1=O,-9%

5 compounds picked at random from those above, as already listed:
SMILES,HSD17B inhib
O=C(COC(=O)c1cccc(C(=O)OCC(=O)NC2CCCCC2)n1)NC1CCCCC1,17%
O=C(C1CCN(c2nnc(-n3cccc3)s2)CC1)N1CCN(c2cccc(C(F)(F)F)c2)CC1,-5%
c1ccc2c(c1)ncc1cccn12,32µM*
CCS(=O)(=O)n1nc(-c2ccc(OC)cc2)nc1SC,102%[activator]
CCn1c(SCC(N)=O)nnc1-c1cc2c(C)nn(-c3ccccc3)c2s1,u

Additional results
SMILES,HSD17B inhib
O=C1CC(c2cccnc2)c2cc3c(cc2N1)OCO3 (centres undefined),6%
COc1ccc(N2C(=O)C(Cl)=C(N3CCCC3)C2=O)cc1,-6%
Cc1ccc(S(=O)(=O)Nc2c(C)n(C)n(-c3ccccc3)c2=O)cc1C(=O)NCc1ccccn1,6%
CCCc1nc(SCC(=O)Nc2cc(Cl)ccc2OC)c2c(=O)n(C)c(=O)n(C)c2n1,10%
CCOCC(=O)Nc1cccc(C(=O)OCC)c1,7%
COc1ccccc1C(=O)Nc1ccccn1,-3%
CCCN1C2=NS(=O)(=O)CCN2c2ccccc21,8%
Cc1c(N=CC=Nc2c(C)n(C)n(-c3ccccc3)c2=O)c(=O)n(-c2ccccc2)n1C,2%
CC(=O)Nc1ccc(C(=O)CSc2nc3ccccc3n2CC(=O)N2CCCC2)cc1,-4%
CCOC(=O)N1CCN(C(=O)Cn2ncc3ccccc32)CC1,u
CCOC(=O)N1CCN(c2ccc(C(=O)c3cccc(F)c3)cc2)CC1,-7%
CCCCCCn1cnc2c(c1=O)c1nc3ccccc3nc1n2Cc1cccs1,5%
CC12CCC3(CO)COC(c4ccccc4O1)C2C3 (centres undefined),5%
C=CCn1c(=O)c2ccccc2n2c(SC(C)C(=O)Nc3nc(-c4ccccc4)cs3)nnc12 (centres undefined),u
FC(F)(F)c1nnc2sc(-c3ccccn3)nn12,0%
CCOc1cccc(-c2nc(C(N)=O)c3[nH]c(=O)n(-c4cccc(Cl)c4)c3n2)c1O,4%
CN(C)C(CNC(=O)c1cccs1)c1cccnc1 (centres undefined),3%
CCc1sc(C(=O)N2CCN(S(C)(=O)=O)CC2)cc1Br,1%
Cc1nn(-c2ccc(C(=O)O)cc2)c(N)c1-c1ccccc1,-18%
Cc1cccc(C)c1NC(=O)N1CCC(n2cnc3ccccc32)CC1,0%

An excerpt from above in order of formula weight, smallest number first.
SMILES,HSD17B inhib
CC12CCC3(CO)COC(c4ccccc4O1)C2C3 (centres undefined),5%
FC(F)(F)c1nnc2sc(-c3ccccn3)nn12,0%
Cc1nn(-c2ccc(C(=O)O)cc2)c(N)c1-c1ccccc1,-18%
Cc1ccc(S(=O)(=O)Nc2c(C)n(C)n(-c3ccccc3)c2=O)cc1C(=O)NCc1ccccn1,6%

Carrying on.
SMILES,HSD17B inhib
Cc1cncn1CCc1nc2c3ccccc3nc(=S)n2[nH]1,-1%
CS(=O)(=O)c1ccc(C2=C(c3ccccc3)C(=O)OC2)cc1,8%
CCCS(=O)(=O)c1nnnn1-c1cccc(OC)c1,-18%
Cc1c(NC(=O)CN2C(=O)c3ccccc3C2=O)c(=O)n(-c2ccccc2)n1C,-1%
CCc1nnc(NC(=O)CSc2nnnn2-c2cccc(C(=O)OC)c2)s1,2%
CCOc1ccc(NC(=O)CN(C)c2nnnn2-c2ccccc2)cc1OCC,7%
O=C(O)c1oc2ccccc2c1CSc1ccccn1,-9%
CSc1nc(N2CCOCC2)c2ccccc2n1,7%
COc1ccc(S(=O)(=O)N2CCOCC2)cc1C(=O)Nc1cc(C)on1,7%
CCc1nnc(NC(=O)C2CCC2)s1,9%
CCOC(=O)C1CCN(C(=O)Nc2ccc3oc(C)nc3c2)CC1,-1%
Cc1cc(=O)n2[nH]c(C)c(-c3ccc(Cl)cc3)c2n1,20µM*
CCCS(=O)(=O)N1CCCC(C(=O)NCCN2CCC(Cc3ccccc3)CC2)C1 (centres undefined),3%
O=C(NC1CCCCC1)c1noc2c1CCCCC2,-2%
CCOc1ccc(Cc2nc(-c3nonc3N)no2)cc1OCC,7%
Cn1c(CCNC(=O)OC(C)(C)C)n[nH]c1=S,-3%
CC(=O)Nc1nc(SCCCc2ccccc2)n[nH]1,8%
CCOc1cc(-c2noc(-c3cccnc3)n2)ccc1OC,-4%
Cc1occc1-c1nnc(SCC(=O)Nc2ccc3c(c2)OCO3)n1CC1CCCO1 (centres undefined),2%
CCOC(=O)N1CCN(C(=O)c2c(-c3ccccc3)noc2C)CC1,-2%
COc1ccc(C)cc1S(=O)(=O)N1CCC(C)CC1,-9%
CC(C)(C#N)NC(=O)c1ccco1,5%
CCOC(=O)N1CCC(NS(=O)(=O)c2cc(Br)cnc2N)CC1,u
Cc1ccc(NC(=O)CN(C)S(=O)(=O)c2cccc3nsnc23)cc1,7%
C/C(Cl)=C/CCl,0%
O=C(Cc1ccccc1)N1CCC(c2nc(-c3ccc(F)cc3)no2)CC1,8%
CCc1c(C)nc2ncnn2c1N1CCCC(C(=O)NCc2ccc3c(c2)OCO3)C1 (centres undefined),-11%
COCCCNC(=O)CN1C(=O)c2ccccc2C1=O,14%
CC(C)OC(=O)CSc1nc2ncc(Cl)cc2[nH]1,-1%
Cc1cc(N)ccc1NC(=O)c1ccccc1,7%
O=C(CCCCCn1c(=S)[nH]c2cc3c(cc2c1=O)OCO3)N1CCN(C2CCCCC2)CC1,-5%
